# D2 agonist – activates the human D2 dopamine receptor; P14416; actives 0.084% (n = 360,000); DiscoveRx PathHunter D2 beta-arrestin, luminescence, 90 min; 100% = 57 uM dopamine signal; activation, % (concentration not given with the values); in the data active = activation above about 40%; inconclusive = about 15% to 40%; inactive = below about 15%; further: compound concentration not given in the record; the text of the record calls up to 30% inactive
#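 DiscoveRx PathHunter D2 beta-arrestin cells (2,100/well) attached overnight, then compound-stimulated 90 min at 37 C in HBSS/10 mM HEPES/0.1% Tween-20 buffer; beta-galactosidase complementation read by luminescence after 1 h at ambient temperature. Dopamine 57 uM final (EC100) as control.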
# Six1-Eya2 blk – Six1/Eya2 interaction inhibition. Q15475+O00167. AlphaScreen GST-Six1/His-Eya2 binding, biochemical; active compounds read low; control for the full effect not named in the record. activity change, % (concentration not given with the values). actives 0.56% (n = 360,000). AID 651725; in the data active = activity change below about -65%; inconclusive = about -30% to -65%; inactive = above about -30%; further: on the % scale 0 is the no-effect control and ±100 the full control effect
# Target sequence (O00167 whole entry, looked up): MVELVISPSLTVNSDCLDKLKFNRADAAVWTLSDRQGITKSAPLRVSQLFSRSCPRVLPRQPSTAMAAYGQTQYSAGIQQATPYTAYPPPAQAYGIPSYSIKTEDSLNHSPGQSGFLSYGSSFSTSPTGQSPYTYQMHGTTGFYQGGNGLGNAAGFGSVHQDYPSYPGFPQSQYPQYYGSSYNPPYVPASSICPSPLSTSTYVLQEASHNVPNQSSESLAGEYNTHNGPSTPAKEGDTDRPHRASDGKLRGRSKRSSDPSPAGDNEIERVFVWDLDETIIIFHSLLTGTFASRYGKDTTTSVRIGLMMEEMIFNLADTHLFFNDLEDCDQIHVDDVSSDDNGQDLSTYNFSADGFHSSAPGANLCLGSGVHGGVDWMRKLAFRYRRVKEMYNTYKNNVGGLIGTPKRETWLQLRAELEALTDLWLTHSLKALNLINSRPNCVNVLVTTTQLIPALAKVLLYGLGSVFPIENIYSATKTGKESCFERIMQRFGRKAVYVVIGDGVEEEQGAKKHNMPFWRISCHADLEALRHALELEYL
# Target sequence (Q15475 whole entry, looked up): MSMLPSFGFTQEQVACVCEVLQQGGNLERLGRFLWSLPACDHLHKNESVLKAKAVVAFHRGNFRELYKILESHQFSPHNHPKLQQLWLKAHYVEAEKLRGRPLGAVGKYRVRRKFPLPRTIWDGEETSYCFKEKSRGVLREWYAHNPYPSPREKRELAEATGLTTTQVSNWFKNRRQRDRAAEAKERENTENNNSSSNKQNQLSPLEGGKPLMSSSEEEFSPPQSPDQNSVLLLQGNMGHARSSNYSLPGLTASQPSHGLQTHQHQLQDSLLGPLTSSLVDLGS
#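 Homogeneous AlphaScreen proximity assay pairing GST-Six1 with His-tagged Eya2 (added as 5X mix: 250 nM and 500 nM) in 50 mM Tris pH 8.0, 300 mM NaCl, 1 mM TCEP. Glutathione donor and nickel acceptor beads; 1 h, 37 °C, dark.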
# gsp ag – activates gsp, the McCune-Albright syndrome mutation. gsp mutant cells, cAMP HTRF, 30 min; control for the full effect not named in the record. Potency, µM (series often up to 76.9 µM), without a hit: at the highest dose activation (cAMP increase), actives largely listed as activators. actives 0.13% (n = 340,000). AID 624287; active = well fitted activation curve with a large enough effect; inconclusive = small, poorly fitted or top-dose-only effect, or another doubt; inactive = no such curve, though single readings can be large or run the other way; cell line not stated here;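 further: phosphodiesterase inhibitor Ro 20-1724 added with compounds to block cAMP breakdown; potency means the concentration at half of the fitted maximal effect; nearly all actives have a fitted effect of over 60% in size; about a fifth of the inactives were tested at one dose only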
#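 Cells in DMEM/10% FBS with G418 were pretreated with compounds in DMSO plus […] (300 uM stock) for 30 min at 37C. cAMP was measured by HTRF (cAMP-d2 plus anti-cAMP antibody-K) after 30 min at room temperature.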
# CtBP-E1A blk – CtBP/E1A binding inhibition; actives 0.49% (n = 340,000); AID 651724; AlphaScreen GST-E1A/His-CtBP binding, 1536-well; active compounds read low; control for the full effect not named in the record; activity change, % (no concentration beside the values); in the data active means activity change below about -65%; inconclusive means about -30% to -65%; inactive means above about -30%; further: on the % scale 0 is the no-effect control and ±100 the full control effect
#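 Protein mix (5X: 125 nM each GST-E1A, His-CtBP) was incubated with pinned compound 2 h at 37 deg C in dark, in 50 mM Tris pH 8.0 buffer with 300 mM NaCl. Glutathione donor and nickel acceptor beads followed; AlphaScreen signal read after 1 h.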
# gsp antag – gsp mutant antagonism; Potency, µM (doses to about 76.9 µM), inactives show at the top dose activity change, negative = inhibition, hits mostly inhibitors; actives 0.4% (n = 340,000); gsp-mutant cells, cAMP HTRF, 30 min; control for the full effect not named in the record; active = falling curve of any shape with a large fitted effect; inconclusive = falling curve, mostly with a smaller effect; inactive = flat or rising curve; cell line not stated here;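 further: intracellular cAMP measured with PDE inhibitor Ro 20-1724 present during compound exposure; potency means the concentration at half of the fitted maximal effect; on the % scale 0 is the no-effect control and ±100 the full control effect; nearly all actives have a fitted effect of over 65% in size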
#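 Cells in G418 medium, seeded 16-24 h, 37C; buffer exchange to DPBS + 1 mM CaCl2, 0.5 mM MgCl2, 0.05% BSA; cpds in DMSO + […] (300 uM stock), 30 min 37C; HTRF cAMP detection.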
# D2 potentiator – potentiates the human D2 dopamine receptor allosterically; potentiation, % (concentration not given with the values); actives 0.23% (n = 360,000); DiscoveRx D2 beta-arrestin cells, luminescence, 90 min; 100% = 57 uM dopamine signal; P14416; AID 624464; active = potentiation of 50% or more; inconclusive = 30% to 50%; inactive = 30% or less;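 further: compound concentration not given in the record; tested on top of an EC20 dose of dopamine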
#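 PathHunter D2 cells, attached overnight at 37 deg C, received compound in DMSO plus dopamine at EC20 (50 nM final) for 90 min at 37 deg C. Beta-arrestin recruitment was read as luminescence after 1 h with detection reagent at ambient temperature.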
# Starred values were filed as active, the others as inactive; u = inconclusive; x = no result given; [ ] = another dose, or the depositor's remark.
SMILES,D2 agonist,Six1-Eya2 blk,gsp ag,CtBP-E1A blk,gsp antag,D2 potentiator
COc1ccc(NC(=O)c2ccco2)cc1NC(=O)c1c(F)c(F)c(OC)c(F)c1F,1.8,4.1,7.3%,5.0,13.1%,-37.3
Cc1cc(C(=O)NNC(=O)c2cccs2)nn1C(C)(C)C,-4.4,-18.9,-8.2%,-1.6,9.6%,-8.0
O=C(N/N=C/c1ccco1)c1ccncc1,-3.0,7.0,40.2%,3.9,13.1%,0.1
Cc1cccc(C(=O)NNC(=O)C23CC4CC(CC(C4)C2)C3)c1O,-17.6,4.6,7.9%[15.4 µM],-4.5,0.0%,-7.0
CCCNC(=O)c1cc2cc([N+](=O)[O-])ccc2s1,0.6,-1.8,-0.5%,2.2,-10.4%,-8.3
O=C(CCCCCn1c(=S)[nH]c2cc3c(cc2c1=O)OCO3)N1CCN(Cc2ccccc2)CC1,0.8,-1.6,17.6%,-14.5,-4.2%,-11.1
CC1CCN(CCCNC(=O)c2coc3nc4ccccc4nc23)CC1,-2.6,-6.1,-24.3%,-2.4,-16.3%,-23.6
COc1ccc(/C=C2\N=C(c3ccccc3)N(c3ccc(C(=O)O)cc3)C2=O)cc1OC,-0.1,-3.5,-2.9%[15.4 µM],6.2,-30.0%,0.1
O=C(CSC1=NC(=O)C(c2ccccc2)C(=O)N1)Nc1ccccc1Cl (stereo not drawn),-4.3,-16.1,-14.4%,-3.8,4.2%,7.1
O=C(C[C@@H]1C/C=C\C[C@H](NC(=O)OCC2c3ccccc3-c3ccccc32)C(=O)OC[C@@H]2CCCN2C1=O)NCCO,-7.3,18.6,6.0%,-6.1,12.3%,-4.4
O=C(CCSc1nnc2ccccn12)Nc1ccc2c(c1)OCO2,-3.4,22.6,8.3%,4.0,2.8%,-5.1
COCC(=O)N1CCC(n2nccc2NC(=O)c2ccccc2OC)CC1,-0.9,4.5,-42.6%[inhibitor],1.2,-2.1%,-8.9
COC(=O)C[C@H]1C[C@@H]2c3cc(NC(=O)Nc4ccc(F)cc4)ccc3O[C@@H]2[C@@H](CO)O1,4.5,8.9,-66.8%[inhibitor],-21.1,x,4.2
CC1CN(S(=O)(=O)c2ccc(C(=O)Nc3ccc(S(=O)(=O)N4CCOCC4)cc3)cc2)CC(C)O1 (stereo not drawn),-5.4,0.7,14.1%[15.4 µM],3.3,5.5%,1.7
Cc1ccc(C)c(N(CC(=O)NC2CCCC2)C(=O)c2cc3cc4cccc(C)c4nc3s2)c1,-1.5,7.2,-18.7%,4.1,u,-6.5
CN(C)CCN1C(=O)NC(C)(c2ccc([N+](=O)[O-])cc2)C1=O (stereo not drawn),-0.8,15.5,8.4%[15.4 µM],-13.4,x,-13.6
Fc1cccc(CN2CCCCCCC2)c1,-2.6,4.9,-32.9%[inhibitor],9.8,10.4%,-17.3
COc1ccc(S(=O)(=O)N2CCN(Cc3ccco3)CC2)cc1,-0.8,8.3,-15.1%,3.2,8.0%,-0.9
O=C1CCCN1c1ccc(S(=O)(=O)Nc2cccnc2)cc1,1.4,15.4,7.9%[15.4 µM],x,-5.8%,-2.4
Fc1ccc(COc2ccc(/C=N/n3cnnc3)cc2)cc1,0.5,27.8,-2.4%,0.0,3.3%,-1.1
Cc1cc(NC(=O)COc2ccccc2C)no1,-2.5,6.9,-69.1%[inhibitor],1.2,13.7%,3.7
COc1ccc(-n2cnc3cc(C(=O)N4CCOCC4)ccc32)cc1,1.3,-4.7,43.3%,-17.1,11.8%,-9.3
Cc1cc(C(=O)CSc2nc(N)cc(N)n2)c(C)n1CC1CCCO1 (stereo not drawn),2.9,-4.5,-4.3%,-10.3,-4.4%,-1.1
CC(OC(=O)CCN=C1NS(=O)(=O)c2ccccc21)C(=O)Nc1ccc(N(C)C)cc1 (stereo not drawn),-2.8,0.0,-27.2%,-0.5,7.08µM*,-3.6
Cc1ccc(C)c(OCC(O)CN2CCc3ccccc3C2)c1C (stereo not drawn),-1.3,1.7,16.6%,6.9,5.8%,-21.7

# Not a retest: an excerpt of the list.
SMILES,D2 agonist,Six1-Eya2 blk,gsp ag,CtBP-E1A blk,gsp antag,D2 potentiator
COc1ccc(NC(=O)c2ccco2)cc1NC(=O)c1c(F)c(F)c(OC)c(F)c1F,1.8,4.1,7.3%,5.0,13.1%,-37.3
Cc1cc(C(=O)NNC(=O)c2cccs2)nn1C(C)(C)C,-4.4,-18.9,-8.2%,-1.6,9.6%,-8.0

# (further entries)
SMILES,D2 agonist,Six1-Eya2 blk,gsp ag,CtBP-E1A blk,gsp antag,D2 potentiator
COc1cccc(-n2c(Cc3cc(=O)[nH]c(=O)[nH]3)nnc2SCC(=O)N2CCCC2)c1,-2.3,-0.3,u,-1.8,2.3%,-12.3
O=c1[nH]c(Nc2ccccc2)cc2ccccc12,-5.9,14.1,1.1%,-22.6,5.7%,4.6
CCc1nccn1CCC(=O)N1CCCC(Nc2ccc(F)cc2)C1 (stereo not drawn),-3.7,0.3,-21.2%,-1.1,-0.2%,-14.3
COc1ccc(C(=O)N2CCN(c3ccc([N+](=O)[O-])c(-n4nc(C)cc4C)c3)CC2)cc1,-3.1,-12.7,0.6%[15.4 µM],-3.2,-15.5%,0.3
Cc1ccccc1C(=O)NNC(=O)c1ccc(F)cc1,-0.4,1.2,2.5%,-8.1,0.6%,-19.7
O=C(NC(=S)Nc1cccc([N+](=O)[O-])c1)C1CCCC1,-3.0,-9.3,21.2%,-7.0,-24.1%,2.7
CCOC(=O)CN1C(=O)N[C@@H](c2cccs2)C(C(C)=O)=C1C,-2.2,-0.1,-3.0%,9.0,5.4%,-0.6
COc1cccc(Nc2nnc(SCN3C(=O)c4ccccc4C3=O)s2)c1,-3.7,1.2,1.3%,5.6,4.7%,-17.7
CC(=O)Nc1ccc(S(=O)(=O)N(C)CC(=O)N/N=C/c2cccc(O)c2)cc1,-2.6,-3.3,-0.5%[15.4 µM],11.0,14.2%,-3.5
CCCNC(=O)c1onc(CSc2ccccn2)c1C(=O)NCCC,-0.1,12.0,x,5.2,5.2%,2.1
COc1ccc(NC(C)=O)cc1NC(=O)c1cccc(C(F)(F)F)c1,2.6,6.7,2.6%[15.4 µM],13.3,x,-8.8
CC(C)OCCCNC(=O)c1ccc(Br)cc1,-2.1,-1.9,25.1%,-1.7,1.9%,-14.8
COc1ccc(-c2cc(NC=O)c3ncc(-c4cccc(C(=O)NCCN(C)C)c4)n3c2)cn1,-2.8,-11.5,x,-14.9,x,-6.4
CCCCN(CC)CCCNC(=O)C1CCN(c2ncnc3c2sc2cccc(F)c23)CC1,-8.2,-13.4,13.0%[15.4 µM],-10.5,-3.3%,-13.8
O=C(CCC(=O)NC1CCCCC1)NCc1ccc(F)cc1,-3.9,3.4,-3.7%,11.1,5.8%,-0.4
CC(C)Nc1ncnc2c1ncn2[C@H]1CN(Cc2ccc3c(c2)OCO3)C[C@@H](CO)O1,4.1,1.9,x,0.5,x,-7.5
COc1ccc(C(=O)Oc2ccc(C(=S)N3CCOCC3)cc2)cc1,2.2,u,28.0%,3.0,11.2%,-0.9
COc1ccc(C(C)(C)C)cc1NC(=O)C1CC=CCC1C(=O)O (stereo not drawn),0.4,1.7,-15.0%,8.8,-3.2%,11.5
Cc1noc(C(=O)Nc2ccc(C#N)cc2)c1Cl,2.4,-2.6,1.4%[15.4 µM],3.2,9.8%,-5.4
C=CCNc1nc(Cl)nc(NCc2ccco2)n1,-2.0,8.5,0.3%[15.4 µM],-0.7,15.7%,-10.2
O=C(c1cnc(N2CCN(c3ccccn3)CC2)c2ccccc12)N1CCN(c2cccc(Cl)c2)CC1,-0.2,-26.2,-7.8%[15.4 µM],-13.9,x,-5.1
CCCNC(=O)Cn1sc2nc(C)cc(C)c2c1=O,-0.4,0.0,14.1%,8.0,7.2%,-20.2
O=C(c1ccccc1)N(Cc1ccc(F)cc1)Cc1nc2ccccc2c(=O)[nH]1,-1.2,-2.6,-14.6%,-1.8,0.1%,-10.4
CC(C)(C)C1CCC2(CC1)SCC(=O)N2c1ccccc1 (stereo not drawn),-2.1,0.2,16.9%,7.4,2.7%,6.0
CCN(C(=O)CSc1ncnc2sccc12)c1c(N)n(Cc2ccccc2)c(=O)[nH]c1=O,3.7,-2.0,4.8%,x,-0.9%,3.2
SMILES,D2 agonist,Six1-Eya2 blk,gsp ag,CtBP-E1A blk,gsp antag,D2 potentiator
CN1CCN(C(=O)CCn2c(=O)c3cccn3c3cccnc32)CC1,2.6,0.0,u,7.0,12.0%,-5.9
COc1ccc2ccccc2c1/C=N/NC(=O)c1nnn(-c2nonc2N)c1CN(C)C,1.3,8.8,-58.3%[inhibitor],0.3,7.9%,-6.7
Cc1cccc(C(=O)N(C(=O)c2cccc(C)c2)N(C)C)c1,0.9,10.1,-1.2%,8.0,7.2%,-5.1
CCOc1ccc(N2CC(C(=O)Nc3ccccc3C(=O)NC3CC3)CC2=O)cc1 (stereo not drawn),-1.2,1.8,3.2%[15.4 µM],-4.2,-12.5%,-4.7
O=C(NCc1cccnc1)[C@@H]1CC=C[C@@H]2CCN(Cc3ccc(Cl)c(Cl)c3)C(=O)[C@@H]21,-4.4,-3.6,-24.2%,-0.1,-12.3%,-1.2
CC(C)Cc1nc(NCCN2CCOCC2)c(C#N)c2c1COC(C)(C)C2,-3.5,u,-0.4%,6.8,0.0%,-20.2
CCOC(=O)Cc1c(C)nc2c(C#N)c[nH]n2c1=O,-3.2,u,4.9%,u,14.2%,-3.9
CCc1cc2c(NC(Cc3ccccc3)C(=O)O)nc(C)nc2s1 (stereo not drawn),0.0,-0.4,-9.7%,x,-2.8%,5.6
CC1CN(CCCOc2ccccc2[N+](=O)[O-])CC(C)O1 (stereo not drawn),-2.9,3.7,10.4%,4.9,14.1%,-15.3
Cc1c(C(=O)N2CCC(C)CC2)sc2ncnc(N3CCN(c4ccccc4)CC3)c12,-0.5,10.9,-42.8%[inhibitor],8.4,2.5%,9.5
O=C1COc2ccc(S(=O)(=O)N3CCCC3)cc2N1,-3.2,12.2,-7.0%,3.6,11.5%,-5.2
Cc1ccc(OCCNC(=O)CCNS(=O)(=O)c2ccc(C)cc2)cc1,-5.8,5.9,-10.9%[15.4 µM],-11.1,5.5%,-19.1
CO/N=C(/c1nonc1N)N1CCN(c2ccc([N+](=O)[O-])cc2)CC1,-8.4,-4.0,-27.4%,-2.1,-7.8%,-8.8
O=C(CN1C(=O)c2ccccc2S1(=O)=O)Nc1ccc(S(=O)(=O)Nc2ncccn2)cc1,-0.5,10.6,-1.7%,-9.7,6.4%,-5.2
COc1cccc(-c2cnc(C(O)c3ccc(OC)c(F)c3)[nH]2)c1 (stereo not drawn),-5.0,-12.2,x,-9.4,x,-7.4
O=C(CN1C(=O)c2cccnc2Oc2ccc(Cl)cc21)NC1CCCCCC1,3.6,-1.3,u,-0.8,-16.6%,0.0

# Rows were taken by chance; any-hit rate near 1.4%.
